Beta2AR agonist = activates human beta-2 adrenergic receptor causing internalization; P07550; Am2.2-beta2AR cells, FAP receptor internalization, flow cytometry; reference of the scale not given here; response, % (test concentration not listed); actives 0.43% (n = 340,000); AID 504454;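 active means response above a set limit, near 3 SD of response in nonfluorescent compounds, cut at about 42% in these data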;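 further: stock transfer was 100 nL into about 11 µL; a reference agonist was the positive control; negative values mostly stem from fluorescent compounds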
Bfl-1 A1 inh = inhibitors of the anti-apoptotic protein A1, read as caspase activation. actives 0.066% (n = 330,000). caspase activation, % (no concentration beside the values). MEF A1-2A-BIM cells, Caspase-Glo 3/7 luminescence, 3 h; percent of clofoctol response, vehicle zero;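 active means over half of replicate activation scores above 10%, or exactly half above 10 with the replicate mean above 10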;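 further: wells of about 30 µL received 50 nL stock; many hits fall short of the cut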
rRNA inh HTS = inhibitors of bacterial rRNA selective over humanized ribosomes; actives 1.6% (n = 350,000); AID 720706; E. coli WT GFP vs humanized-ribosome RFP mutants, fluorescence, 24 h; stronger effect = lower value; DMSO median 0, no signal -100; GFP signal change (wild-type ribosome), % (no concentration beside the values);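 active means significant combined selectivity score with lowered wild-type GFP, culture density cut under 30%, mutant RFP and density less affected; inactive means any of these conditions unmet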; further: one replicate is shown; some compounds called inactive have numbers as strong as hits
ALR H2O2 inh = blocks human ALR sulfhydryl oxidase activity | actives 3.8% (n = 290,000) | inhibition, % (concentration not given with the values) | AID 485317 | P55789 | purified ALR, DTT oxidation, H2O2 HRP-luminol luminescence;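 active means mean and each replicate at 75% or more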;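 further: stock transfer was 7.5 nL into about 7.5 µL; 0% = neutral wells and 100% = wells with inactivated enzyme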
LANA-H2B inh = blocks KSHV LANA binding to histone H2A/H2B; Q9QR71; inhibition, % (concentration not given with the values); actives 0.6% (n = 320,000); AID 2629; cell-free LANA-H2A/H2B peptide, fluorescence polarization; in the data active means inhibition mostly above about 10%, no sharp cut-off; inactive means mostly below about 6.7%;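 further: stock transfer was 7.5 nL into about 10 µL; 0% = median of vehicle wells and 100% = median of positive control wells; one replicate is shown; the record names a cut of 25% in any replicate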
Target sequence (Q9QR71 whole entry, looked up): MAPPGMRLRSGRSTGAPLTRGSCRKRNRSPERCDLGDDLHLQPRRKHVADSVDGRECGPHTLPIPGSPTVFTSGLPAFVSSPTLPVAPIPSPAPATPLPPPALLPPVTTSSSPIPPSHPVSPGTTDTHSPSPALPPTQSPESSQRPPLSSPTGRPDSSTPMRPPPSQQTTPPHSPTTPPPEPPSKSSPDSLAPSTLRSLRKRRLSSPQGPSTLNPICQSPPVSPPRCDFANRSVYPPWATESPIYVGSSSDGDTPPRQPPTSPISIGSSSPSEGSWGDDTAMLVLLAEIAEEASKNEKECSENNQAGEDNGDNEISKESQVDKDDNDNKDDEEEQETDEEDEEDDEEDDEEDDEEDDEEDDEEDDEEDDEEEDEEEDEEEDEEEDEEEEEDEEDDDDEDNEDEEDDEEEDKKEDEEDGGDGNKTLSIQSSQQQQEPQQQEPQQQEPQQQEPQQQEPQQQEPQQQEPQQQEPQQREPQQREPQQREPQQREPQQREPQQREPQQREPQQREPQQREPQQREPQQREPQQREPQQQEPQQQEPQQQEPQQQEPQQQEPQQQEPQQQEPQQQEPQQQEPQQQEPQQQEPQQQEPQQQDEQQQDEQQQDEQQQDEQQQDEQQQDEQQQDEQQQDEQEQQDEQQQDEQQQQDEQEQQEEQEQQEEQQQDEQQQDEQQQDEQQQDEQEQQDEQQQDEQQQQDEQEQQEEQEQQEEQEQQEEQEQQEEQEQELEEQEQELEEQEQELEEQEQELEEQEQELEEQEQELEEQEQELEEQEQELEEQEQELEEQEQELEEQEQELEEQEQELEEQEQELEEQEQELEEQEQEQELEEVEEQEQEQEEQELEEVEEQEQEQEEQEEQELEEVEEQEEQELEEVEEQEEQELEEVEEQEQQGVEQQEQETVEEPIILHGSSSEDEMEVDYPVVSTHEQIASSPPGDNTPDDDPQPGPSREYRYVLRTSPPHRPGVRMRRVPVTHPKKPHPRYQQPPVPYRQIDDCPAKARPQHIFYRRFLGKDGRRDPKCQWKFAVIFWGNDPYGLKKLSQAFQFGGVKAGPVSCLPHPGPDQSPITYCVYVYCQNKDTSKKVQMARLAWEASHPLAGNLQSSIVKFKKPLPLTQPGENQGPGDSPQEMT
T cruzi inh = T. cruzi replication inhibition; T. cruzi beta-gal in NIH3T3, luminescence, 90 h; inhibition, % (concentration not given with the values); actives 1.4% (n = 300,000); AID 1885;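 active means mean inhibition across valid replicates above about 55%, limit read from the data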;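 further: signal also drops with host cell toxicity which is not excluded here; 0% = plate median of DMSO wells and 100% = zero luminescence signal; higher percent means less beta-gal luminescence so fewer parasites; stock transfer was 50 nL into about 50 µL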
Beta apoptosis = beta cell apoptosis inhibition; INS-1E cytokine-induced death, ATP luminescence, 48 h; percent of positive-control rescue, neutral wells zero; protection from apoptosis, % (concentration not given with the values); actives 0.8% (n = 300,000);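 active means all replicates at 75% or more, or half of them and the mean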;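 further: 0% = cytokine-treated negative control wells and 100% = positive control rescue; higher means more ATP so stronger rescue from cytokine killing; wells of about 40 µL received 100 nL stock; the first replicate is given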
Calb FLC = C. albicans growth modulation with fluconazole | C. albicans CaCi-2 (fluconazole-resistant clinical isolate) + fluconazole, Alamar Blue growth, 48 h | growth inhibition, % (test concentration not listed) | actives 0.57% (n = 300,000) | AID 1979;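 active means most replicates above 75%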;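 further: all wells also contain fluconazole at 8 µg/ml as a sub-toxic cotreatment; 0% = median of DMSO wells and 100% = median of geldanamycin control wells; wells of about 8 µL received 7.5 nL stock; the first replicate is given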
rRNA inh HTS OD600 = also measured in rRNA inh HTS; calls as there; OD600 change, %; measured here: OD600 growth;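 optical density of the mix in the first replicate; 0 = DMSO median and -100 = no signal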
rRNA inh HTS RFP = second read-out of rRNA inh HTS, no call of its own (marks repeat the call); RFP signal change, %; measured here: RFP humanized mutant strains;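 first replicate; 0 = DMSO median and -100 = no signal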
* marks the source's active call; other numbers are inactive results; . = not tested or not shown; & = joins results of further samples. Some of the compounds tested (hit frequency here may not be typical).

SMILES	Beta2AR agonist	Bfl-1 A1 inh	rRNA inh HTS	rRNA inh HTS OD600	rRNA inh HTS RFP	ALR H2O2 inh	LANA-H2B inh	T cruzi inh	Beta apoptosis	Calb FLC
COC(=O)C1=C(c2ccc(F)cc2OCc2ccccc2)C[C@@H]2CC[C@H]1N2C(=O)NCc1ccc(C)cc1	5	0.5	16	11	-4.3	22	-5.4	.	-2	.
CCOP(=O)(OCC)C(NC(=O)c1cccc([N+](=O)[O-])c1)C(Cl)(Cl)Cl (configuration not stated)	1	2.0	8	5	-0.3	-15	4.2	3	-7	3
CN1CCN(C(=O)COc2ccc(S(=O)(=O)Nc3ccc(F)cc3)cc2)CC1	3	0.4	3	7	3.8	-3	-3.5	66*	-8	.
CN1C(=O)C(=Cc2ccccc2Oc2ccc(Cl)c(F)c2)C(=O)N(C)C1=O	6	0.4	.	.	.	13	3.4	-13	-1	1
CN(C)C(=Nc1ccccc1)P(=S)(N(C)C)N(C)C	2	-0.2	12	7	1.3	-3	-3.2	-18	-4	-10
Nc1ncc2[nH]cnc2n1	-4&-2	2.4&-0.3	.	.	.	-8&1	1.1&0.5	-4&4	-5&1	3&-10
O=C(Cc1ccccc1)OCc1ccccc1	-4	-0.4	1	2	1.3	-7	1.3	.	3	.
O=C(CCS(=O)(=O)c1ccc(Br)cc1)N1CCC2(CC1)OCCO2	6	-0.5	.	.	.	-11	3.9	.	-1	.
CC(C)CC(NC(=O)C1CCCCC1)C(=O)N1CCC2(CC1)OCCO2 (configuration not stated)	-2	-1.2	.	.	.	-9	-5.0	6	0	2
O=C(Cn1c(=S)[nH]c2ccccc2c1=O)N1CCC2(CC1)OCCO2	-10	0.7	.	.	.	59	2.8	.	-3	.
CNc1ccc2nc3ccccc3[n+](C)c2c1	2	0.4	-13	-13	67	.	6.1	59*	93*	67
COC(=O)C1=C(c2cc3ccccc3s2)C[C@@H]2CC[C@H]1N2C(=O)NCCNC(C)=O	4	1.4	.	.	.	-4	6.0	-8	-6	3
C#C[C@]1(O)CC[C@H]2[C@@H]3CCC4=CC(=O)CC[C@]4(C)[C@H]3CC[C@@]21C	-3	1.0	-1	5	0.1	.	1.0&-6.3	-25	-3	.
O=C(N/N=C\C1C(=O)NC(=S)N(c2ccccc2)C1=O)c1ccc(O)cc1 (configuration not stated)	6	0.7	8	11	-1.7	53	6.6	-1	-2	-18
COc1ccc(CN2CCN(C(=O)Cc3ccccc3)CC2)cc1Br	0	-0.2	-9	-10	-2.6	-4	1.3	4	.	-4
Cc1ccc2[nH]c(C)c(CCNCc3cccnc3)c2c1	-4	-1.2	8	7	4.2	34	2.1	18	-2	-4
CC(=O)OC1N=C(c2ccccc2Cl)c2cc(Br)ccc2N(C)C1=O (configuration not stated)	2	0.7	-15	-13	0.5	.	-0.3	-13	-9	4
CN1CCc2cc3c(cc2[C@H]1[C@@H]1OC(=O)c2c1ccc1c2OCO1)OCO3	-5	0.4	.	.	.	-9	0.8	.	-6	.
CNc1cc(Cl)c2nonc2c1[N+](=O)[O-]	106*	.	-58	-77	-22	.	.	42	.	100*
Cn1c(O)c(C=Nc2ccc3c(c2)CCC3)c(=O)n(C)c1=O	-12	-4.8	.	.	.	0	2.5	0	-4	15
Cc1cc(=O)oc2cc(OCC(=O)N3C[C@H]4C[C@@H](C3)c3cccc(=O)n3C4)ccc12	-2	-1.7	.	.	.	-6	-5.2	-21	.	-6
Cc1cc(/C=C2\C(=O)NC(=O)N(Cc3ccco3)C2=O)c(C)n1-c1ccc(O)cc1	-4	-0.3	5	0	7.5	5	2.7	-15	-4	-9
CCOc1ccc(CN2CCN(C(=O)Cc3ccccc3)CC2)cc1	-4	0.8	5	6	0.1	-14	5.4	-14	.	6
CCOC(=O)C1=C(N)Oc2ccccc2C12C(=O)N(CC(=O)OC)C(CC(=O)OC)=C2C(=O)OC (configuration not stated)	-9	0.1	.	.	.	-19	7.0	-13	-10	-3
NS(=O)(=O)c1cccc(N2CCNCC2)c1	-1	-0.7	7	2	0.1	-7	-1.1	-21	0	25
SMILES	Beta2AR agonist	Bfl-1 A1 inh	rRNA inh HTS	rRNA inh HTS OD600	rRNA inh HTS RFP	ALR H2O2 inh	LANA-H2B inh	T cruzi inh	Beta apoptosis	Calb FLC
Cc1csc(=N)n1Cc1ccccc1	-3	-0.2	.	.	.	-4	1.3	-8	1	8
Cc1c(C(=O)N2CCC3(CC2)OCCO3)oc2ccccc12	4	-0.5	.	.	.	1	0.5	-25	-4	-4
Cc1ccccc1-n1c(-c2ccco2)nc2ccccc2c1=O	-8	-0.3	.	.	.	-4	-4.3	-13	6	3
C=CC1CN2CCC1CC2c1[nH]c2ccccc2c1CCO (configuration not stated)	3	0.0	.	.	.	-1	0.2	-11	1	-4
O=C(CNC(=O)c1ccc(Cl)cc1)Nc1ccc(Br)cc1C(=O)c1ccccc1	0	-0.5	-15	-2	-0.3	33	-4.0	-7	-2	11
CN(C)C(=O)Oc1ccc2oc(=O)cc(-c3cc4ccccc4o3)c2c1	10	0.0	-2	8	-4.8	-4	5.5	5	3	4
Cc1cc(OCC(=O)N2CCC(C(=O)NCC(C)C)CC2)c2c3c(c(=O)oc2c1)CCCC3	1	-0.6	1	0	-0.8	-2	0.6	-2	8	-6
Cc1ccc(/C=C2\C(=O)NC(=O)N(CCc3ccc(F)cc3)C2=O)s1	5	-0.1	14	11	8.6	96*	-2.9	-16	-8	4
C=CCNC(=O)c1c(N)n(Cc2ccco2)c2nc3ccccc3nc12	6	1.1	.	.	.	11	-1.5	-15	-2	-18
O=C1C2CCCN2C(c2cccs2)N1c1ccccn1 (configuration not stated)	7	-0.2	.	.	.	-1	-3.4	-3	-25	-4
COc1ccc(C(c2c(O)c3ccccc3oc2=O)c2c(C)n(C)n(-c3ccccc3)c2=O)cc1 (configuration not stated)	1	-0.2	.	.	.	-6	-16	2	-3	17
C=CCn1c(O)c(C(C)=NCCC(c2ccccc2)c2ccccc2)c(=O)[nH]c1=O	6	-0.6	.	.	.	.	0.7	10	2	-1
CN1C(=O)N(C)C(=O)C(CCc2ccncc2)(CCc2ccncc2)C1=O	-4	0.6	4	9	-9.4	-6	-1.7	2	-1	-9
CC1(C)OC(c2ccccc2)=C/C(=C/C=C2C(=O)NC(=O)NC2=O)O1	-13	1.1	17	16	33	10	-6.1	-1	-1	-11
Cc1cnc(NC(=O)CN2CCCCC2)s1	7	-1.0	18	15	2.2	3	-3.0	3	-3	3
Cc1cc(C(=O)N2CCC3(CC2)OCCO3)no1	2	0.6	14	11	0.0	-4	-2.5	-13	0	-3
COC(=O)c1ccc(CN2CCN(Cc3ccccc3)CC2)cc1	6	0.6	.	.	.	2	2.7	14	-3	-11
CCn1c(O)c(C=NCCN2CCOCC2)c(=O)n(CC)c1=S	9	0.2	10	3	1.4	-11	5.5	-8	-42	7
O=c1c2ccccc2nc(/C=C/c2ccc(O)cc2)n1-c1ccc(O)cc1	-5	0.3	-9	-10	7.3	-4	-5.1	4	4	-1
C=CCn1c(O)c(C(C)=NCc2cc(OC)cc(OC)c2)c(=O)[nH]c1=O	6	-0.7	.	.	.	-1	1.5	-5	-4	7
COC(=O)C1=C(c2ccc(F)cc2OCc2ccccc2)C[C@@H]2CC[C@H]1N2C(=O)NCc1ccc([N+](=O)[O-])cc1	12	0.5	12	10	6.7	-1	3.7	.	3	.
O=C(c1cc2c(s1)CCCC2)N1CCC2(CC1)OCCO2	-9	-0.2	.	.	.	-25	-1.6	-8	6	-1
COc1ccccc1OCC(=O)N1CCCC(N2CCN(c3ccc(F)cc3)CC2)C1 (configuration not stated)	-4	-1.4	1	4	3.2	95*	3.1	14	-6	27
COc1ccc(CC2C(=O)N(c3ccccc3)C(=O)N(c3ccccc3)C2=O)c(OC)c1	-11	.	.	.	.	9	13*	-19	-8	-10
Cc1ccccc1-c1nc2ccccc2c(=O)n1C	-4	0.1	-7	-1	0.7	-9	1.1	-3	.	-21

Not a retest: entries from further up.
SMILES	Beta2AR agonist	Bfl-1 A1 inh	rRNA inh HTS	rRNA inh HTS OD600	rRNA inh HTS RFP	ALR H2O2 inh	LANA-H2B inh	T cruzi inh	Beta apoptosis	Calb FLC
COc1ccc(CC2C(=O)N(c3ccccc3)C(=O)N(c3ccccc3)C2=O)c(OC)c1	-11	.	.	.	.	9	13*	-19	-8	-10
Cc1ccccc1-c1nc2ccccc2c(=O)n1C	-4	0.1	-7	-1	0.7	-9	1.1	-3	.	-21

(list continues)
SMILES	Beta2AR agonist	Bfl-1 A1 inh	rRNA inh HTS	rRNA inh HTS OD600	rRNA inh HTS RFP	ALR H2O2 inh	LANA-H2B inh	T cruzi inh	Beta apoptosis	Calb FLC
CC(C)n1nnnc1CN1CCN(C)CC1	0	0.8	.	.	.	-3	0.0	4	0	-12
O=C(Cc1ccccc1)N1CCN(Cc2c[nH]c3ccccc23)CC1	0	1.3	.	.	.	-2	0.2	7	17	-10
COc1ccc(C=O)cc1	-4	-0.2	.	.	.	-3	-29	.	1	.
CC(=O)N1CCN(CC(=O)Nc2ccc(C#N)c(Cl)c2)CC1	-2	-0.8	12	6	-0.2	-2	6.3	-2	-1	-4
Cc1ccc(CN2C(=O)CN=C(c3ccccc3)c3ccccc32)cc1	-10	1.1	-49	-77	-27	-96	0.9	-7	4	-8
Fc1ccc(CCNCc2ccccc2Cl)cc1	1	0.7	.	.	.	-8	-5.6	48	-2	1
COC(=O)C1=C(c2ccc(S(C)(=O)=O)cc2)C[C@@H]2CC[C@H]1N2C(=O)NCC1CC1	1	0.2	9	9	0.6	-2	3.0	-13	-5	-5
Cn1c(O)c(C=Nc2ccccc2-c2ccccc2)c(=O)n(C)c1=O	-3	0.1	12	14	-1.2	.	6.6	-24	.	2
Cc1nc2ccc(Cl)cc2c(=O)n1-c1ccc([N+](=O)[O-])cc1	-5	0.9	26	16	2.1	-1	-1.6	7	1	7
NS(=O)(=O)c1ccc(-c2ccc(C=C3C(=O)NC(=O)NC3=O)o2)cc1	6	0.3	18	16	-5.5	98*	-4.1	-38	-4	-9
CCCC/C(=N\O)c1c[nH]c2ccccc12	7	-0.3	.	.	.	89*	1.2	-16	-7	-11
CCCCCn1c(=O)c(C(=O)NCCc2ccccc2)c(O)c2ccccc21	-4	0.0	18	14	1.2	.	6.5	13	18	17
CCOC(=O)c1c(C)n(COCCO)c2ccc(O)cc12	-6	0.4	.	.	.	-10	1.1	1	-3	11
Cc1cccc(C2=NCC(=O)N(CC(=O)NCc3ccco3)c3sc4c(c32)CCCC4)c1	-8	0.1	.	.	.	20	-3.2	9	8	21
O=C1NC(=O)N(C2CCCCC2)C(=O)C1C1c2ccccc2C(=O)N1Cc1ccccc1 (configuration not stated)	-5	0.6	.	.	.	-4	-5.1	-18	0	-7
COc1ccc(CN2C(=O)NC(=O)/C(=C/c3ccc([N+](=O)[O-])s3)C2=O)cc1	-77	-0.5	-48	-4	46	-9	-0.8	17	-3	-11
COc1cccc(NC(=O)N2CCC3(CC2)OCCO3)c1	1	-0.4	.	.	.	-4	-2.4	-15	4	-12
CC(C)Oc1ccc(C2(C#N)CC[N+](C)(C)CC2)cc1	9	0.9	.	.	.	-3	2.3	1	-3	3
Cc1ccc(-n2c(O)c(C=Nc3ccccc3N)c(=O)[nH]c2=O)cc1C	-11	0.8	.	.	.	-8	-0.2	-4	-1	-1
